# LANA-nucl inh – LANA-nucleosome interaction inhibition; FITC-LANA1-23 / chicken nucleosome fluorescence polarization; active compounds read low; z-score (test concentration not listed); 0.3% of 51,000 active; AID 720717;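 active means both repeat wells score below -2 in polarization z-score versus plate sample wells, excluding overly bright wells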;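 further: 100 nL library stock added to about 30 µL; numbers are from one replicate; some results filed as inactive read as strong as hits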
#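 Test system: purified chicken nucleosomes with FITC-labelled LANA N-terminal peptide (1-23); Input: 240 nM purified chicken nucleosomes (480 nM peptide binding sites), final; Medium: TEN-BT buffer, pH 7.5; Timing: 10–45 min, room temperature; Technique: fluorescence polarization, 480 nm excitation, 535 nm parallel and perpendicular emission; Replication: duplicates.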
# BasE inh – BasE siderophore biosynthesis inhibition; purified BasE, fluorescence polarization binding displacement; inhibition, % (concentration not given with the values); 0.1% of 84,000 active;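 active means both replicates above 25% with normal brightness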;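 further: 0% = negative plate control signal and 100% = positive plate control signal; stock transfer was 100 nL into about 30 µL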
# An asterisk follows results filed as active; · = no result given; & = joins results of further samples. The list is partial. The share of hits here may be higher or lower than overall.
# A first look, seven compounds:
mol | LANA-nucl inh | BasE inh
COc1ccc(N2C(=O)NC(=O)C(Cc3ccc(OC)c(OC)c3)C2=O)cc1 (configuration not stated) | 1.2 | -0.2
CCN(C(=O)c1cnc2ccc(C)cn2c1=O)c1ccccc1 | -0.46 | 3.7
O=C(NC(=S)NCc1ccccc1)c1ccco1 | 0.5 | -1.3
CSc1ccccc1C(=O)NCc1cccnc1 | -0.072 | 1.0
COC(=O)CN1C(=O)S/C(=C/c2ccc(-c3ccc(C(=O)O)cc3)o2)C1=O | · | -1.6
Cc1ccc(-c2nc3ccc(N4CCCC4)cc3c(=O)[nH]2)cc1 | 0.79 | ·
Cc1cc(C)c(S(=O)(=O)N2CCCC(C(=O)NC3CC3)C2)c(C)c1 (configuration not stated) | 1.6 | 0.5

# All compounds of this part, from the start:
mol | LANA-nucl inh | BasE inh
COc1ccc(N2C(=O)NC(=O)C(Cc3ccc(OC)c(OC)c3)C2=O)cc1 (configuration not stated) | 1.2 | -0.2
CCN(C(=O)c1cnc2ccc(C)cn2c1=O)c1ccccc1 | -0.46 | 3.7
O=C(NC(=S)NCc1ccccc1)c1ccco1 | 0.5 | -1.3
CSc1ccccc1C(=O)NCc1cccnc1 | -0.072 | 1.0
COC(=O)CN1C(=O)S/C(=C/c2ccc(-c3ccc(C(=O)O)cc3)o2)C1=O | · | -1.6
Cc1ccc(-c2nc3ccc(N4CCCC4)cc3c(=O)[nH]2)cc1 | 0.79 | ·
Cc1cc(C)c(S(=O)(=O)N2CCCC(C(=O)NC3CC3)C2)c(C)c1 (configuration not stated) | 1.6 | 0.5
N#Cc1cc2c(=O)n3ccccc3nc2n(CC2CCCO2)c1=O (configuration not stated) | -0.43 | 1.5
CCC(Sc1nccn1C)C(=O)Nc1cc(C)on1 (configuration not stated) | 1 | -1.9
CSc1nc2ccc(NC(=O)C3CC(=O)N(Cc4ccco4)C3)cc2s1 (configuration not stated) | · | -0.7
CCOC1CS(=O)(=O)CC1OCC (configuration not stated) | 1.2 | -2.4
CCCCS(=O)c1nc(-c2ccc(C)cc2)cc(-c2ccccc2)c1C#N (configuration not stated) | · | 1.3
COc1cc(C=C2C(=O)NC(=O)NC2=O)cc(Cl)c1OCC(=O)O | -1.4 | 0.4
Nc1nc(CSc2n[nH]c(-c3ccccc3)n2)nc(Nc2ccccc2)n1 | · | 1.8
Cc1noc(C)c1COc1cccc(C(=O)Nc2ccccc2)c1 | · | -1.6

# Later entries.
mol | LANA-nucl inh | BasE inh
Cc1noc2ncc(C(=O)c3ccccc3O)cc12 | · | 0.0
CC1(C)CC(NCC(=O)Nc2ccc(C(=O)O)cc2)CC(C)(C)N1 | · | 4.3
CC(Nc1ccc2c(c1)OCCO2)C(=O)N1c2ccccc2CC1C (configuration not stated) | · | 0.1
COc1ccc(NC(=O)CN2C(=O)c3ccccc3C2=O)cc1 | · | 1.8
COC(=O)c1ccc(Oc2ncc(C(F)(F)F)cc2Cl)cc1 | -0.08 | ·
O=Nc1sc2ccc3ccccc3c2c1O | 0.3 | 1.6
CC1(C)CC(=O)C2=C(C1)Nc1ccccc1N(C(=O)Nc1ccc(Cl)c(Cl)c1)C2c1ccco1 (configuration not stated) | 1.1 | -1.3
CC(C)CN(CC(=O)N1c2ccccc2CC1C)CC(C)C (configuration not stated) | · | 4.7
O=C(CN1CCN(Cc2ccccc2)CC1)N1N=CCC1c1ccccc1 (configuration not stated) | 0.91 | -0.5
CC(C)CN1CN(Cc2ccco2)CNC1=S | · | 0.5
Cc1ccc(Cc2cnc(I)c(O)c2)cc1 | -0.33 | 0.3
Cc1nc(N)sc1C(C)(C)C | -0.39 | 0.5
O=C(Nc1ccc(Cl)cc1)/C(=C\c1cccs1)c1ccsc1 | · | 0.3
O=S(=O)(c1ccccc1)N1N=C(c2cccs2)CC1c1ccccc1O (configuration not stated) | · | 1.1
CCCNC(=O)c1oc2ccc3c(c2c1C)C=CC(C)(C)O3 | -0.018 | 0.9

# (listing goes on)
mol | LANA-nucl inh | BasE inh
O=C(COC(=O)C(O)c1ccccc1)NC12CC3CC(CC(C3)C1)C2 (configuration not stated) | · | 1.9
COC(=O)[C@H](C)NC(=O)C(c1ccccc1)c1ccccc1 | · | 0.9
COc1ccc(-c2nnc3c4ccccc4c(C)nn23)cc1S(=O)(=O)N(C)CCO | 0.64 | -5.4
CN1c2ccccc2N(C)C1c1ccccc1 | · | 2.2
CC1NCc2c(sc3c2CCCC3)-n2cccc21 (configuration not stated) | 0.095 | -3.1
CC(OC(=O)c1ccc2c(=O)n3c(nc2c1)CCC3)C(N)=O (configuration not stated) | · | -1.1
Brc1ccc(-c2cc(-c3ccccc3)no2)cc1 | 0.56 | -2.2
Clc1nc(Nc2ccccc2)sc1/C=N/N1CCOCC1 | · | -12
N=C=C1C(=O)c2ccccc2C1=O | 0.62 | 1.5
CN(Cc1nnc(-c2ccccc2)o1)C(=O)c1ccc(F)cc1 | 0.86 | 0.7
CC(Sc1nc2ccccc2c(=O)n1C)C(=O)Nc1ccc2c(c1)OCCO2 (configuration not stated) | · | -1.0
OC(CNCc1cc2ccccc2s1)C(F)(F)F (configuration not stated) | -1.6 | ·
C=CCn1c(SC(C)C(N)=O)nnc1-c1ccc(OC)cc1 (configuration not stated) | · | 1.0
CCN(CC)c1ccc(C=NNC(=O)Cn2nnc3ccccc32)c(O)c1 | -0.034 | 6.7
Cc1cccc(CC(=O)N2CC(C)OC(C)C2)c1 (configuration not stated) | 1.6 | -2.1

# Rewritten field by field: entries from further up.
> CC(OC(=O)c1ccc2c(=O)n3c(nc2c1)CCC3)C(N)=O (configuration not stated)
  LANA-nucl inh = ·; BasE inh = -1.1
> COc1ccc(-c2nnc3c4ccccc4c(C)nn23)cc1S(=O)(=O)N(C)CCO
  LANA-nucl inh = 0.64; BasE inh = -5.4
> COC(=O)[C@H](C)NC(=O)C(c1ccccc1)c1ccccc1
  LANA-nucl inh = ·; BasE inh = 0.9

# Next structures follow:
mol | LANA-nucl inh | BasE inh
Nc1c(S(=O)(=O)c2ccc(F)cc2)c2nc3ccccc3nc2n1Cc1cccs1 | -1.4 | 2.3
CC1CCCC(C)N1CC(=O)N1CCCc2c1c(=O)oc1ccc(OCc3ccccc3)cc21 (configuration not stated) | 0.082 | -1.8
Cc1ccc(N(CC(=O)N2CCc3ccccc32)C2=NC(=O)CS2)cc1 | · | -0.9
Cc1cc(Cl)n(-c2ccc(F)cc2)n1 | · | -0.4
COc1[nH]c2ccccc2c1/C=N/O | -0.6 | -0.7
COC(=O)[C@H](Cc1ccccc1)NC(=O)[C@@H](N)CC(=O)O | 0.16&0.29 | 0.8
NS(=O)(=O)c1ccc(NC(=O)CCCC(=O)O)cc1 | · | -0.6
COc1ccc(C2C(C(=O)N3CCOCC3)=C(C)NC3=C2C(=O)CCC3)cc1Br (configuration not stated) | -1.5 | 2.2
Cc1ccc(N/N=C(\C#N)C(=O)NC2CC2)cc1C | · | -0.8
Cc1nnsc1C(=O)ON=C(c1cccs1)c1cccs1 | -0.65 | 2.3
Cn1c(O)c(C=Nc2ccccc2)oc1=S | · | 2.1
Cn1c(SCc2nc(N)nc(N3CCCc4ccccc43)n2)nnc1-c1ccccc1 | -0.34 | -0.7
CCS(=O)(=O)N1CCC(NC(=O)c2ccccc2Cl)CC1 | 0.24 | -0.3
CN(C(=O)CSc1nccc(=O)[nH]1)C1CCCCC1 | · | 0.2
Cn1cc(C(=O)OCc2cccc3ccccc23)cn1 | · | 1.9

# Continuation.
mol | LANA-nucl inh | BasE inh
COc1ccc(CN2CCN(c3ccc(F)cc3)CC2)c2ccccc12 | 0.22 | 1.9
CSc1nc2nc3c(c(=O)n2[nH]1)CCCC3 | -1.9 | 0.7
CNC(=S)N(Cc1ccccc1)Cc1ccccc1 | · | 1.1
CN1C(=S)N(C2CCCCC2)C(=O)/C1=C/c1ccc(N2CCCC2)cc1 | 2.9 | -16
O=C(N/N=C/C1=C(N2CCOCC2)C(=C\c2ccccc2)/CC1)Nc1ccccc1 | · | 3.1
O=C(Cc1cccs1)N(c1nnc(-c2ccc(F)cc2)s1)C1CCCC1 | 0.79 | 0.1
CCOc1ccc2c3c(c(=O)oc2c1OCC)CCCC3 | 0.35 | -0.7
CCCn1c(=O)n(C)c(=O)c2c3nc4ccccc4c(-c4ccccc4)c3[nH]c21 | · | 10
C=C1CC[C@H](O)C/C1=C/C=C1\CCC[C@]2(C)C([C@H](C)/C=C/[C@H](C)C(C)C)CC[C@@H]12 (some centres not stated) | 0.11&-0.86 | -2.8
COC(=O)CC1(C)NN=C(c2ccccc2)S1 (configuration not stated) | -0.85 | 1.8
Cc1[nH]c2ccccc2c1C | -1.2 | 1.4
CCOC(=O)CSc1nnc(-c2ccccc2C)n1CC | 0.34 | 4.3
CC(=O)Nc1cc2ccccc2oc1=O | 2.2 | -3.9
O=C(Nc1cc(Cl)ccc1N1CCOCC1)c1ccc2c(c1)S(=O)(=O)N=C1CCCCCN12 | · | -1.5
O=C(O)CCC(=O)NCC1COc2ccccc2O1 (configuration not stated) | · | 1.8

# Other records:
mol | LANA-nucl inh | BasE inh
CCNC(=O)/C(C#N)=C/C1=Cc2ccccc2OC1 | · | 0.4
Cc1oc2ncn(C)c(=O)c2c1C(=O)N1CCCCC1 | · | 0.3
CCSc1nnc(CNc2ccc(F)cc2)n1-c1ccc(C)cc1 | -0.74 | 1.2
COc1ccc(NC(=O)C(C(=O)Nc2ccc(OC)cc2)C23CC4CC(CC(C4)C2)C3)cc1 | · | -15
C=CCn1c(SCc2c(C)noc2C)nc2scc(-c3cccs3)c2c1=O | · | 0.8
O=C(NC1CCCCC1)O/N=C/c1ccc(F)cc1 | 0.65 | -1.6
C#CC(CC)(CC)NC(=O)C1CC(C)=C(C)CC1C(=O)O (configuration not stated) | -1.2 | 2.1
CC1CC(C)CN(c2ncnc3c2cnn3-c2ccc(Cl)cc2)C1 (configuration not stated) | · | 2.2
CN(C)CCN1C(=O)c2oc3ccccc3c(=O)c2C1c1cccnc1 (configuration not stated) | -1.7 | 1.0
CC(NC(=S)N1CCN(CCO)CC1)C12CC3CC(CC(C3)C1)C2 (configuration not stated) | -1.2 | -0.4
CN(C)S(=O)(=O)c1ccc2oc(SCC(=O)O)nc2c1 | · | -0.7
O=C(c1ccccc1)N(Cc1ccco1)c1nc(-c2ccccc2)cs1 | 0.16 | -1.9
CCOC(=O)N1CCN(C(=O)Nc2sc3nc4n(c(=O)c3c2C)CCC(C)CC4)CC1 (configuration not stated) | 0.75 | -0.2
CC(C)C(=O)N1C2CCC1CC(O)(c1ccccc1F)C2 (configuration not stated) | 0.24 | 0.9
COc1ccc(/C=C2\SC(=S)N(CC3CCCO3)C2=O)cc1 (configuration not stated) | · | -3.0

# (further entries)
mol | LANA-nucl inh | BasE inh
COC(=O)c1ccc(Cn2cc(S(=O)(=O)N3CCCC3)ccc2=O)o1 | · | 1.2
O=C(N/C=C/c1cccs1)NCc1ccc(C(F)(F)F)cc1 | · | -0.3
COc1ccc(-c2nn(-c3ccccc3)cc2C(=O)OCC(C)C)cc1 | · | 1.4
COc1ccc(OCC(=O)Nc2ccc3c(c2)OCO3)cc1 | -0.31 | 1.6
Cc1ccc(Cn2nc(C)c(C(=O)N3CCC(n4c(=O)[nH]c5ccccc54)CC3)c2Cl)cc1 | · | 1.1
O=C(O)CSc1nnc(-c2ccccc2)n1-c1ccccc1 | 0.077 | 0.1
Cc1cc(=O)[nH]c(SCC(=O)N2CCC(Cc3ccccc3)CC2)c1C#N | · | 2.3
N#C/C(=C\C=C\c1ccco1)c1nc2c(s1)CCCC2 | 0.8 | -6.2
S=C1NC2CCCCC2N1 (configuration not stated) | · | 0.1
Cc1cc(C=C(C(=O)O)C(=O)O)c(C)n1Cc1ccco1 | · | 2.4
CCOC(=O)CN1C(=O)C2(C(C#N)=C(N)Oc3n[nH]c(C)c32)c2ccccc21 (configuration not stated) | · | 1.9
CC(=O)NCc1ccc(C(=O)COC(=O)/C=C/c2ccc(C)o2)o1 | · | -1.1
CCC(=O)Nc1ccccc1C(=O)N(C)C | 0.69 | 1.0
Cc1cnc(=O)[nH]c1SCc1ccc(C(F)(F)F)cc1 | 1.7 | -1.6
Oc1ccc2ccccc2c1C=NN1CCN(Cc2ccccc2)CC1 | · | 1.5

# Other entries follow.
mol | LANA-nucl inh | BasE inh
Clc1ccc(Oc2cnccn2)c2ccccc12 | · | 0.5
O=C(O)CC1S/C(=N/N=C/C=C/c2ccccc2)NC1=O (configuration not stated) | 0.14 | 0.2
CC(C)(CNC(=O)c1ccccc1OCCOc1ccccc1)N1CCOCC1 | · | -2.1
Cc1cc(C)n(CC(=O)NC2CCCCC2C)c(=O)c1C#N (configuration not stated) | -0.64 | -1.1
Cc1c(C(=O)NCCCN2CCCCC2)sc2nc3n(c(=O)c12)CCCC3 | -0.18 | 0.0
Cc1ccccc1C(=O)Nc1ccc(NC(=O)c2ccc(C(C)(C)C)cc2)cc1 | · | 1.6
O=S(=O)(c1ccc(F)cc1F)N1c2cccc3cccc(c23)S1(=O)=O | · | 1.0
NC(=S)N/N=C/c1ccc(Sc2cccc3cccnc23)o1 | -0.36 | -1.5
CC(C)(C)C(=O)COC(=O)c1cc2ccccc2cc1O | · | 2.4
O=C(NCC(=O)N1CCOCC1)c1ccccc1 | · | 0.6
N=c1c(Cl)cc(C(F)(F)F)cn1O | -1.2 | ·
CCOC(=O)C(CC)n1c(Br)nc2c1c(=O)[nH]c(=O)n2C (configuration not stated) | 1.6 | 0.4
Cc1ccc(-c2nc(N)sc2CC(=O)OCC(=O)N2CCOCC2)cc1 | · | -0.7
COC(=O)c1nn(-c2cccc(Cl)c2)cc(OC)c1=O | -0.68 | 0.8
Nc1nc2c(ccc3[nH]c(=O)c(=O)[nH]c32)s1 | -0.15 | 1.7
CCn1cc(CC(=O)O)c2ccccc21 | -0.68 | -1.4
COc1ccc(NCc2nnc(SCC(=O)c3ccc(OC)cc3)n2C)cc1 | 0.36 | -0.9
